Assay outcomes: PubChem BioAssay, several laboratories
YopH inh – inhibitors of Yersinia enterocolitica YopH tyrosine phosphatase. fluorescence Ex485/Em525. inhibition, %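 (about 10 µM by stock and volumes)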. actives 0.16% (n = 140,000). AID 898;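 active = inhibition of 50% or more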;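 also: controls were vehicle for no effect and minimum signal wells for full effect; inactives centre near -20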
Arbovirus anti – antivirals against arbovirus infection; arbovirus infection cell-based antiviral screen; inhibition, % at 10 µM; actives 0.37% (n = 200,000);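 active = inhibition from about 30%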;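 also: bluetongue infection of BSR cells; cell survival read as ATP light after 72 h; 0% = infected wells without compound and 100% = uninfected wells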
Mtb betalactam – beta-lactam sensitization of Mtb H37Rv; M. tuberculosis H37Rv growth with meropenem, percent inhibition; hits of this screen are not shown here; inhibition, % at 25 µM; actives 0.27% (n = 330,000);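 active = about 74% or more and at least 40 points above the plate without the antibiotic, then above 30% in a dose series; inconclusive = first-round hits that could not be retested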;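 also: growth measured after seven days incubation then overnight dye step; 0% = bacteria only wells and 100% = bacteria with antibiotic; twin plates without the antibiotic show which effects depend on it; some results filed as inactive read as strong as hits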
Mtb growth – M. tuberculosis H37Rv growth inhibitors, H37Rv strain (AID 1626) | one-dose inhibition, % at 10 µM; IC50 in µM for titrated hits | actives 0.95% (n = 220,000) | M. tuberculosis H37Rv growth inhibition; higher % means a stronger effect;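 active = confirmed in a dose series; inconclusive = inhibition above 80% but not taken into the dose series; inactive = below 80% or under 30% at every dose of the series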;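 also: bacteria incubated seven days before Alamar blue readout; 0% = bacteria only wells and 100% = bacteria with antibiotic wells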
RecA intein inh – Mtb RecA intein splicing inhibition; P9WHJ3; cell-free RecA intein splicing, fluorescence; inhibition, %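 (about 9 µM by stock and volumes)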; actives 0.75% (n = 290,000); AID 2221; in the data active = inhibition above about 30%; inconclusive = no clear call, values can overlap the other calls;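 also: 0% = vehicle wells and 100% = reference inhibitor control wells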
Target sequence (P9WHJ3 whole entry, looked up): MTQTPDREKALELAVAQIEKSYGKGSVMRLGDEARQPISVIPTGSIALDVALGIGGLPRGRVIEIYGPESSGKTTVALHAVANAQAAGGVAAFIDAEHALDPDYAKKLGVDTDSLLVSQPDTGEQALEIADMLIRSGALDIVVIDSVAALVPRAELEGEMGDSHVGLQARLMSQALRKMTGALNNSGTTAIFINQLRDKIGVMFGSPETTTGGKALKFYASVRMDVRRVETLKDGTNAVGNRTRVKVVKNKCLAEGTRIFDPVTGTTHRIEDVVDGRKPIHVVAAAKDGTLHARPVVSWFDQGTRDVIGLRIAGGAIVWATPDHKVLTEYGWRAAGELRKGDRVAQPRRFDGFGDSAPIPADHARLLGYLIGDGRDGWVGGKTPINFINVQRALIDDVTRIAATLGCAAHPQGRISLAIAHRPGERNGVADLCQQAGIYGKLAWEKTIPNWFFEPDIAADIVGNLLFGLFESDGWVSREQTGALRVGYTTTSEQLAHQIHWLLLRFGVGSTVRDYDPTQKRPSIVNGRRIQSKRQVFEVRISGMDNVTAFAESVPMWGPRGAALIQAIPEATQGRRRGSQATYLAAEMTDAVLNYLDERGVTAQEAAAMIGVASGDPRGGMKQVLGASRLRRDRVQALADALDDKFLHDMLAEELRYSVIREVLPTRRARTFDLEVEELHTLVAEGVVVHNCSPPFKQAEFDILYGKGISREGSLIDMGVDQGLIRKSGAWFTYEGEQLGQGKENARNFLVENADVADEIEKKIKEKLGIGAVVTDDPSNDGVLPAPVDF
* = called active by the depositor; u = inconclusive; x = no result given.

Sample of the layout (15 entries):
SMILES	YopH inh	Arbovirus anti	Mtb betalactam	Mtb growth	RecA intein inh
CCC1=NN(C(=O)COc2ccccc2)C(O)(c2ccncc2)C1 (stereo not given)	x	-1.6	4.6	-5.3%	0.0
COc1cccc(NC(=O)CN(Cc2ccccc2)S(C)(=O)=O)c1	-32.0	10.4	-3.4	-0.6%	-1.9
COc1ccc(-c2[nH]ncc2/C=N/NC(=O)c2ccncc2)c(OC)c1	x	x	98.7	x	-1.7
O=[N+]([O-])c1ccc(Cc2nnc(-c3ccc(F)cc3)o2)cc1	x	7.2	-3.8	12.3%	-5.0
Cc1onc(-c2cccc(Cl)c2Cl)c1C(=O)O/N=C(\N)c1ccc([N+](=O)[O-])o1	x	x	97.3	67.0%	3.1
CC1(C(=O)NCc2ccccn2)C=CCN1C(=O)c1ccccc1 (stereo not given)	-28.9	-2.9	-3.2	-17.6%	-0.2
Cc1ccc(C(=O)NC(C)c2nnc(SCC(=O)NC3CCCC3)n2C)cc1 (stereo not given)	x	x	-6.3	x	-0.4
CCOC(=O)C1=C(C)NC(C)=C(C(=O)OCCNC(=O)c2cccnc2)C1c1cccc([N+](=O)[O-])c1 (stereo not given)	1.7	-10.3	-3.3	5.5%	1.4
Cc1ccc(S(=O)(=O)CCC(=O)OCc2ccc(Cl)cc2)cc1	-12.3	1.7	7.9	-0.6%	2.4
Cc1cc(C)nc(/N=C2/NC(=O)CS2)n1	-32.6	-4.6	-0.3	-9.8%	x
O=C(COC(=O)c1cccc2ccccc12)Nc1cccnc1Cl	-11.5	9.0	-3.7	5.8%	-0.4
CCOCCn1c(N2CCCC2)nc2c1c(=O)[nH]c(=O)n2C	x	x	-6.9	x	0.3
Cc1cc(C(=O)Nc2nc3c(s2)CCCC3)cs1	-24.9	3.2	36.0	64.2%	0.2
O=C(CCCN1C(=O)c2cccc3cccc(c23)C1=O)NCCN1CCOCC1	x	3.9	-4.8	6.3%	-1.5
CC(=O)c1ccc(NC(=O)c2ccn(C(=O)OCC(C)C)n2)cc1	-29.5	-4.4	4.9	3.8%	-5.6

Main list, repeating the preview:
SMILES	YopH inh	Arbovirus anti	Mtb betalactam	Mtb growth	RecA intein inh
CCC1=NN(C(=O)COc2ccccc2)C(O)(c2ccncc2)C1 (stereo not given)	x	-1.6	4.6	-5.3%	0.0
COc1cccc(NC(=O)CN(Cc2ccccc2)S(C)(=O)=O)c1	-32.0	10.4	-3.4	-0.6%	-1.9
COc1ccc(-c2[nH]ncc2/C=N/NC(=O)c2ccncc2)c(OC)c1	x	x	98.7	x	-1.7
O=[N+]([O-])c1ccc(Cc2nnc(-c3ccc(F)cc3)o2)cc1	x	7.2	-3.8	12.3%	-5.0
Cc1onc(-c2cccc(Cl)c2Cl)c1C(=O)O/N=C(\N)c1ccc([N+](=O)[O-])o1	x	x	97.3	67.0%	3.1
CC1(C(=O)NCc2ccccn2)C=CCN1C(=O)c1ccccc1 (stereo not given)	-28.9	-2.9	-3.2	-17.6%	-0.2
Cc1ccc(C(=O)NC(C)c2nnc(SCC(=O)NC3CCCC3)n2C)cc1 (stereo not given)	x	x	-6.3	x	-0.4
CCOC(=O)C1=C(C)NC(C)=C(C(=O)OCCNC(=O)c2cccnc2)C1c1cccc([N+](=O)[O-])c1 (stereo not given)	1.7	-10.3	-3.3	5.5%	1.4
Cc1ccc(S(=O)(=O)CCC(=O)OCc2ccc(Cl)cc2)cc1	-12.3	1.7	7.9	-0.6%	2.4
Cc1cc(C)nc(/N=C2/NC(=O)CS2)n1	-32.6	-4.6	-0.3	-9.8%	x
O=C(COC(=O)c1cccc2ccccc12)Nc1cccnc1Cl	-11.5	9.0	-3.7	5.8%	-0.4
CCOCCn1c(N2CCCC2)nc2c1c(=O)[nH]c(=O)n2C	x	x	-6.9	x	0.3
Cc1cc(C(=O)Nc2nc3c(s2)CCCC3)cs1	-24.9	3.2	36.0	64.2%	0.2
O=C(CCCN1C(=O)c2cccc3cccc(c23)C1=O)NCCN1CCOCC1	x	3.9	-4.8	6.3%	-1.5
CC(=O)c1ccc(NC(=O)c2ccn(C(=O)OCC(C)C)n2)cc1	-29.5	-4.4	4.9	3.8%	-5.6
NS(=O)(=O)c1ccc(NC(=O)c2ccc(COc3ccccc3)o2)cc1	x	5.6	0.5	-7.6%	0.3
N#Cc1ccc(-c2nc3cc(Cl)ccc3c(=O)n2O)cc1	x	x	u	x	-1.3
C/C(=N\NC(=O)CN1CCN(Cc2ccccc2)CC1)c1cccs1	x	x	3.1	-7.8%	4.4
O=C(COC(=O)C12CC3CC(CC(C3)C1)C2)Nc1ccccc1F	-31.9	2.0	2.4	-8.3%	-0.3
COCCSc1nnc(NC(=O)c2cc(C(=O)OC)cc([N+](=O)[O-])c2)s1	x	19.3	-2.6	-1.1%	10.1

Some entries already given with just Mtb betalactam.
smiles | Mtb betalactam
O=C(COC(=O)C12CC3CC(CC(C3)C1)C2)Nc1ccccc1F | 2.4
NS(=O)(=O)c1ccc(NC(=O)c2ccc(COc3ccccc3)o2)cc1 | 0.5

(list continues)
SMILES	YopH inh	Arbovirus anti	Mtb betalactam	Mtb growth	RecA intein inh
CC(=O)Nc1ccc(-c2cc3ccccc3o2)cc1	-3.6	-4.3	2.0	-12.9%	3.6
COc1ccc(/C=C/C(=O)NC(=S)N2CCCC(C(N)=O)C2)cc1 (stereo not given)	x	x	-5.6	x	0.0
COc1cc2[nH]c3c(=O)n(CCN4CCOCC4)cnc3c2cc1OC	x	x	0.4	-1.0%	0.3
COc1ccc(NC(=O)c2ccc(CNc3c(N4CCCC4)c(=O)c3=O)cc2)cc1Cl	x	x	-6.8	4.6%	-2.6
CCCC(=O)C1=C(O)C(C(=O)OC)C(C)(C)CC1=Nc1ccc(OC)cc1 (stereo not given)	x	-6.4	1.6	0.4%	5.2
COCCNC(=O)C(c1ccc(C)cc1)N(C(=O)CCC(=O)Nc1ccccn1)c1cccc(C)c1 (stereo not given)	x	x	4.0	x	1.6
CCCOc1ccc(/C=C2\SC(=S)N(CC3CCCO3)C2=O)cc1 (stereo not given)	-18.9	9.9	4.1	1.1%	0.2
O=C(CSc1nnc(CNC(=O)c2ccc(F)cc2)o1)Nc1nccs1	x	x	7.3	x	-5.8
COc1ccccc1C(=O)NC(CCSC)C(=O)NCC(c1ccccc1OC)N1CCCC1 (stereo not given)	x	x	-3.5	x	-1.4
O=C(Nc1ccc2oc(=O)ccc2c1)c1ccco1	-43.4	-4.2	-7.9	-6.7%	-2.0
O=C(Nc1ccc(Cl)cc1)c1cccc(S(=O)(=O)Nc2ccccn2)c1	x	x	1.6	x	1.2
c1ccc(Nc2nn[nH]n2)cc1	-27.7	1.5	-1.2	-0.2%	1.1
Cc1ccc(C(c2nnnn2C2CCCC2)N2c3ccccc3CC2C)cc1 (stereo not given)	-33.0	23.8	4.9	4.8%	9.7
O=C(CN1CCN(c2ccccc2F)CC1)NCc1ccc(Cl)cc1	x	x	-5.7	x	0.5
N#CCCSCc1ccc(OCC(=O)O)cc1	-104.2	-5.4	7.4	2.4%	2.4
Cc1ccc(S(=O)(=O)CCc2nnc(NC(=O)C3CCCCC3)s2)cc1	x	x	-1.5	x	-0.2
COc1cnc(-c2ccccn2)nc1NC(C)C	x	-34.6	75.2	75.4%	-8.7
Cc1c(Cl)cccc1N/C(SCC(=O)N1CCCCCC1)=C(/C#N)c1nc2ccccc2s1	-21.6	-30.8	1.6	4.2%	10.3
Cc1cc(C)c(S(=O)(=O)Nc2nnc(C(C)C)s2)c(C)c1	x	x	-3.2	x	-0.2
CCOC(=O)c1ccc(NS(=O)(=O)c2ccc3c(c2)n(C)c(=O)n3C)cc1	x	x	-1.0	x	1.2
Cc1nc(C)c(CCNC(=O)c2ccccc2)s1	-0.3	0.3	-10.4	3.9%	0.0
CCN(CC)S(=O)(=O)c1ccc(NC(=O)c2cc(-c3cccs3)nc3ccccc23)cc1	-20.4	-16.9	68.5	5.0%	-0.2
CN1CCN(C(=O)CCc2ccc(S(=O)(=O)NC3CCCCC3)cc2)CC1	x	4.2	-11.3	-1.6%	-0.8
CC(C)COc1cccc(C(=O)Nc2ccc(N3CCOCC3)cc2N2CCOCC2)c1	x	x	1.6	x	1.8
Nc1nc(-c2ccc(Cl)cc2)nn1C(=O)c1cccs1	x	19.2	-1.5	-8.9%	0.3
O=C(CCCCCNC(=O)c1ccccc1)N/N=C/c1ccccc1O	-38.1	-9.4	7.4	1.9%	-5.3
CCn1cc(Br)c(C(=O)NCc2ccco2)n1	-6.2	1.9	-1.9	-7.0%	1.2
O=C(Cc1ccccc1F)Nc1cccc2cccnc12	-7.9	-9.8	-3.7	17.5%	2.1
COc1ccc(CCNC(=O)Cn2cnc3c(nnn3Cc3ccccc3F)c2=O)cc1OC	-10.5	9.8	5.3	-8.0%	1.0
Cc1c(C#N)c(O)[nH]c(=O)c1N=Nc1ccc(S(N)(=O)=O)cc1	x	x	13.5	x	-1.8
COc1ccc(C(C)C)cc1S(=O)(=O)n1cnc(C)c1	-19.6	-6.6	u	-1.8%	0.5
CC(=O)c1ccc(Nc2nc3ccccc3nc2NS(=O)(=O)c2cccs2)cc1	x	x	6.0	x	-9.2
CCNC(=S)N(Cc1ccc2c(c1)OCO2)C1CC(=O)N(c2ccc(OC)cc2)C1=O (stereo not given)	-25.9	-0.7	-4.3	-5.9%	3.1
O=C(N1CCOCC1)C1(c2ccccc2)CCCCC1	-13.4	3.0	7.1	-5.8%	0.6
CC(C)N=c1scc(-c2cccs2)n1/N=C/c1ccc(O)c(O)c1O	-11.9	-3.6	0.1	4.8%	x
ClC1CCCCC1n1nnc2ccccc21 (stereo not given)	x	x	-15.7	x	-1.1
Cc1nn(-c2ccccc2)c(N)c1C(O)(CSc1nccn1C)C(F)(F)F (stereo not given)	-15.6	-1.9	5.3	-1.7%	0.2
COC(=O)c1ccc(-c2ccc(/C=N/N3C(=O)C4C5C=CC(CC5)C4C3=O)o2)cc1 (stereo not given)	x	-1.4	6.1	3.5%	x
CCN(CC(=O)Nc1c(F)cccc1F)C(=O)CCCc1c[nH]c2ccccc12	x	x	-10.1	x	-0.7
CC(C)NC(=O)COc1nncc2ccccc12	x	5.1	4.3	-1.1%	-0.1
N#Cc1c(-c2ccccc2)c(C#N)c2nc3ccccc3n2c1N	-18.1	-8.1	0.2	-10.1%	-5.9
Cc1cc(C)c(NS(=O)(=O)c2ccc3c(c2)n(C)c(=O)n3C)c(C)c1	x	x	-9.8	x	-3.3
CC(C)(C)NC(=O)CSc1nc(Cc2ccccc2)nc2ccccc12	x	x	-7.6	x	14.2
C#CCOCCOCCOCCNc1nc(N2CCN(C(=O)[C@H]([C@@H](C)CC)n3cc([C@@H](N)CO)nn3)CC2)nc(N2CCN(C(=O)[C@H](Cc3cc4ccccc4[nH]3)n3cc([C@@H](N)C(C)CC)nn3)CC2)n1 (stereo not given in full)	x	-0.8	35.0	x	1.9
O=C(O)CCCCCn1c(SCc2cc(=O)n3cc(Cl)ccc3n2)nc2ccsc2c1=O	-9.5	5.3	2.7	10.0%	-0.7
CC(NC(=O)Nc1ccc(Cl)cc1)c1ccccc1 (stereo not given)	x	x	-3.8	x	-0.3
O=C(CN1C(=O)CCS(=O)(=O)c2ccccc21)Nc1cccc(Cl)c1	-4.9	0.0	-14.2	-2.9%	-1.4
O=C(COC(=O)[C@@H]1CCCN1S(=O)(=O)c1ccc(Cl)cc1)NCC(F)(F)F	-28.6	0.6	1.5	4.2%	-0.7
Cc1oc2c(c(C)cc3oc(=O)c(CC(=O)NCCC(=O)O)c(C)c32)c1C	x	x	0.8	x	-8.3
Cc1ccc(NC(=O)C2CCN(S(=O)(=O)c3ccc4c(c3)NC(=O)CO4)CC2)cc1	x	x	8.0	x	-0.4
Going on with the list.
SMILES	YopH inh	Arbovirus anti	Mtb betalactam	Mtb growth	RecA intein inh
Cc1ccc(C2C(=O)c3ccccc3C2=O)cc1	x	x	2.2	x	4.4
O=C(CN1C(=O)c2ccccc2S1(=O)=O)NCCSCc1ccccc1Cl	x	x	4.0	x	-3.2
COc1ccc2c(c1)CCN=C2Cc1ccc(OC)c(OC)c1	-10.5	4.8	5.1	16.1%	3.4
CCOC(=O)C1=CN(CC2CCCO2)C=C(C(=O)OCC)C1c1ccccc1C(F)(F)F (stereo not given)	x	15.7	-3.7	3.9%	-5.8
CCOc1ccc(N2C(=O)CC(S/C(N)=N/N=C/c3cccs3)C2=O)cc1 (stereo not given)	-37.8	-30.1	3.5	8.8%	-0.8
Cn1c(=O)c2c(C(=O)O)cc(-c3ccccc3)nc2n(Cc2ccccc2)c1=O	x	x	11.6	x	-9.6

Not all compounds are listed; count on the stated rates, not on these rows.
